VDR inh: Inhibitors of the vitamin D receptor (VDR): qHTS; Potency, µM, for inactives: max response, negative = inhibition, most hits filed as inhibitors; Vitamin D3 receptor (Homo sapiens), P11473; AID 504847, 2011; VDR-SRC2-3 peptide fluorescence polarization, 2 h; 400,000 compounds, 0.93% hits; active = well fitted inhibition curve with a large enough effect; inconclusive = small, poorly fitted or top-dose-only effect, or another doubt; inactive = no such curve, though single readings can be large or run the other way; also: series mostly up to about 120 µM
Target sequence (P11473 whole entry, looked up): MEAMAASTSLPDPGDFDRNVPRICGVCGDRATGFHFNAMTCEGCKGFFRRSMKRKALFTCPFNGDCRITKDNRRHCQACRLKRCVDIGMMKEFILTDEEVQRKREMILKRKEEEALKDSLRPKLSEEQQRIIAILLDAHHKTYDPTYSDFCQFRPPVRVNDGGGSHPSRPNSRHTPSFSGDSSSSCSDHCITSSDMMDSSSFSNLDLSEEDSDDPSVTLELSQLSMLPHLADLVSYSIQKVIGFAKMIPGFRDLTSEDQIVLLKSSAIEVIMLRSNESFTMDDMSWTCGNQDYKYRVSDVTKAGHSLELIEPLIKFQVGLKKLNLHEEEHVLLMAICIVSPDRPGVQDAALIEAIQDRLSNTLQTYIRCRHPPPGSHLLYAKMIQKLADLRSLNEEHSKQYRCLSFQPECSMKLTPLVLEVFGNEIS
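Inhibition of the VDR/SRC2-3 peptide interaction is quantified by fluorescence polarization. Compounds (23 nl, pintool) incubate with the reagents for 2 hours at ambient room temperature.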
Numbers without * were called inactive; ? = inconclusive; & = joins results of further samples; [ ] = another dose, or the depositor's remark. % is scaled to controls: 0 for no effect and ±100 for the full control effect; potency is read from the fitted curve at half-maximal effect. Some of the compounds tested, so the mix of outcomes need not match the whole.

VDR inh	Molecule
16.7%	COc1cccc(NC(=O)CSc2nnc(COc3ccc(Cl)cc3)o2)c1
-3.1%	COCCOC(=O)c1c(NC(=O)CN2CCCc3ccccc32)sc(C(N)=O)c1C
-1.0%	Cc1cccc(NC(=O)C2CCN(C(=O)N3CCOc4ccccc43)CC2)c1C
10.8%	O=C(O)C1CC(O)CN1C(=O)c1ccco1 (centres undefined)
0.5%	CC(C)CN(CCNC(=O)c1cn(C)c2ccc(S(=O)(=O)N3CCOCC3)cc2c1=O)CC(C)C
-14.9%	O=C1CCCC/C1=C/Nc1ccc2c(c1)OCO2
9.2%	CCn1c(SCC(=O)Nc2ccc(Br)cn2)nnc1C1CC1
7.7%	COc1ccc(OC)c(NC(=O)Cc2coc3ccc(C(C)C)cc23)c1
?	CC(C)NC(=O)Nc1cccc2c1O[C@H](CN(C)S(=O)(=O)c1ccc(F)cc1)[C@@H](C)CN([C@H](C)CO)C2=O
2.1%	CCO/C=C1\N=C(c2ccc(F)cc2)OC1=O
-14.4%	O=C(c1c[nH]c(C(=O)C(Cl)(Cl)Cl)c1)c1ccc(F)cc1F
6.4%	COc1cc(OC)c(NC(=O)C(C)n2nc(-c3ccc(C)c(C)c3)ccc2=O)cc1Cl (centres undefined)
-1.3%	Cn1c(=O)nc2n(Cc3ccccc3)c3cccc(Cl)c3cc-2c1=O
0.9%	COc1ccccc1N(CC(=O)NC1CCCC1)C(=O)CCCC(=O)Nc1ccccn1
-10.9%	Cc1ccc(NNC2CC(=O)N(c3cccc(Cl)c3)C2=O)cc1 (centres undefined)
?	CCOc1cc(CNc2ccc(N(C)C)cc2)cc(Br)c1OCC(=O)NC(C)(C)C
12.2%	CCOc1ccc(CN2CCN(Cc3[nH]c4ccc(OC)cc4c3C)CC2CCO)cc1 (centres undefined)
-3.2%	C/C(Cl)=C\Cn1c(N2CCCCCC2)nc2c1c(=O)n(C)c(=O)n2C
1.4%	CCOc1cc(-c2c(C)c(CC)nc(N)c2C#N)ccc1O
4.1%	COC(=O)[C@H]1[C@H]2C[C@@H]3c4[nH]c5cc(OC)ccc5c4CCN3C[C@H]2C[C@@H](OC(=O)c2ccc(N)cc2)[C@@H]1OC

Reformatted with each value named: three of the compounds above.
Compound: Cc1cccc(NC(=O)C2CCN(C(=O)N3CCOc4ccccc43)CC2)c1C
  VDR inh: -1.0%
Compound: O=C(O)C1CC(O)CN1C(=O)c1ccco1 (centres undefined)
  VDR inh: 10.8%
Compound: COCCOC(=O)c1c(NC(=O)CN2CCCc3ccccc32)sc(C(N)=O)c1C
  VDR inh: -3.1%

Additional entries follow.
VDR inh	Molecule
-4.6%	CCCCn1c(SCC(=O)NCCc2ccc(OC)c(OC)c2)nc2c1c(=O)n(C)c(=O)n2C
5.3%	CCOc1ccc(S(=O)(=O)N2CCN(C3CC(=O)N(c4cccc(C(C)=O)c4)C3=O)CC2)cc1 (centres undefined)
-21.0%	CC1(C)CC(=O)C2=C(C1)Nc1[nH]c(=S)[nH]c(=O)c1C2c1ccccc1 (centres undefined)
16.3%	COc1ccc(-c2nc(Cn3c(SCc4cccc(C(F)(F)F)c4)nc4cccnc43)c(C)o2)cc1OC
9.9%	COc1ccc(CNC(=O)Cc2csc3nc(-c4ccc(C)cc4)cn23)cc1
13.6%	COc1ccccc1NC(=O)c1cc2c([nH]c1=O)CC(C)(C)CC2=O
-2.8%	CN(CC(=O)Nc1sccc1C#N)Cc1ccccc1
5.3%	CCOC(=O)c1nc(NCc2cccnc2)c2ccccc2n1
5.2%	Cc1cccc(C(=O)Nc2cccc(C(=O)NC3CCCC3)c2)c1
-8.5%	O=C(COC(=O)c1ccccc1O)Nc1cccc2ccccc12
-7.7%	CCOC(=O)C1C(c2ccc(O)c(O)c2)NC(=S)NC1(O)C(F)(F)F (centres undefined)
4.3%	O=C(CSc1n[nH]c(=O)[nH]c1=O)c1ccccc1
-5.0%	Cc1ccccc1CSc1nnc(-c2ccncc2)n1C
-7.7%	COc1ccc(C(=O)Nc2ccc(OC)c(OC)c2)cc1
1.2%	Cc1cc(O)c(CN2CCN(S(=O)(=O)c3cccs3)CC2)cc1C(C)C
-2.9%	O=C(Nc1cc2c3c(c1)CC(=O)N3CCC2)C1CC1
-11.8%	CCOC(=O)/C=C/C(=O)NNC(=O)c1ccccc1Cl
7.4%	COc1ccc(COC(=O)N/N=C(\C)CC(=O)NCc2ccc(Cl)cc2)cc1
1.1%	CCOc1ccccc1-c1nc2c([nH]1)c(=O)n(C)c(=O)n2C
9.2%	Cc1ccc(NC(=O)c2cc(N(C)C)ccc2[P+](=O)O)cc1
-24.6%	Cc1cc(=O)n2nc(N3CCC(C(=O)N4CCN(c5ccccc5)CC4)CC3)sc2n1
-9.8%	COc1cc(NC(=O)C2CC(=O)NC3=C2C(=O)CCC3)c(OC)cc1Cl (centres undefined)
9.7%	Nc1c(C(=O)Nc2ccc3c(c2)OCCO3)nnn1Cc1cccc(F)c1
6.4%	COCCCN(C(=S)Nc1c(C)cc(C)cc1C)C(C)c1ccccn1 (centres undefined)
-1.1%	CC(=O)c1ccc(NC(=O)COC(=O)c2ccc(F)cc2F)cc1
0.2%	COc1cc(NC(=O)C2CC(c3cccc(OC)c3OC)=NO2)cc(OC)c1OC (centres undefined)
3.7%	Cn1c(N)c(C(=O)COC(=O)c2cncc(Br)c2)c(=O)n(C)c1=O
13.7%	O=C(COC(=O)c1cc(S(=O)(=O)N2CCCCC2)ccc1N1CCOCC1)c1ccc(F)cc1
13.6%	CC(C)(c1ccccc1)c1ccc(OCC(O)CN2CCCC2)cc1 (centres undefined)
-3.6%	O=C(NC1CC1)C1CCN(C2CCN(C(=O)/C=C/c3cccs3)CC2)CC1
-17.7%	O=C(NN=C1C2CC3CC1CC(Cl)(C3)C2)c1cccs1
-0.5%	N#Cc1c(-c2ccccc2Cl)cc(C2CC2)nc1N
11.7%	O=C(CCN1C(=O)c2cccc3cccc(c23)C1=O)NCC1CCCO1 (centres undefined)
11.0%	Cn1c(Cl)c(/C=N/OC(=O)c2ccc(Cl)cc2)c2ccccc21
-4.0%	Cc1ccc(C(=O)C2=C(O)C(=O)N(CCCN3CCOCC3)C23C(=O)N(C)c2ccccc23)o1 (centres undefined)
-5.2%	CC(=O)c1ccc(-c2ccc(C(=O)N3CCC(C(N)=O)CC3)o2)cc1
-6.0%	COC(=O)c1cc(OC)c(OC)cc1NC(=S)N1CCCC(CO)C1 (centres undefined)
7.7%	Nc1nc(NCc2ccccc2)nc(NCCO)c1[N+](=O)[O-]
-15.0%	O=C(CCCCn1c(=S)[nH]c2ccsc2c1=O)NCc1ccc2c(c1)OCO2
12.6%	CCN(CC)c1ccc(N/C(N)=N/c2nc(C(F)(F)F)cc(=O)[nH]2)cc1

A few values from the results shown.
VDR inh result of `Cn1c(N)c(C(=O)COC(=O)c2cncc(Br)c2)c(=O)n(C)c1=O` → 3.7%
VDR inh result of `O=C(CCCCn1c(=S)[nH]c2ccsc2c1=O)NCc1ccc2c(c1)OCO2` → -15.0%

(list continues)
VDR inh	Molecule
-5.7%	COCOc1ccc(C=O)c(O)c1
9.4%	COC(=O)C(C(=O)OC)[C@@H](NC=O)c1ccccc1
?	COc1ccc(OC)c2nc(-c3cccnc3)ccc12
6.7%&-7.8%	CC(=O)Nc1ccccc1NS(=O)(=O)c1ccccc1[N+](=O)[O-]
-5.4%	Cn1nc(-c2ccccc2)c(-c2nc(-c3cccc(Cl)c3)no2)c1Cl
-7.4%&1.3%	CCSc1ncc(Cl)c(C(=O)Nc2ccc(S(=O)(=O)Nc3ncccn3)cc2)n1
-2.1%	COc1ccc(C(=O)c2oc3ccccc3c2NC(=O)c2cccc(OC)c2)cc1
-3.9%	O=C1CCC(C(=O)N2CCCCO2)CN1CCc1ccc(Cl)cc1 (centres undefined)
-7.4%	CCN(CC)C(=O)Cn1cc(C(=O)C(=O)N2CCN(C)CC2)c2ccccc21
-3.3%	Fc1ccccc1CSc1nnc(-c2cccnc2)o1
2.5%	Cc1cccnc1NC(=O)C12CCC(C)(C(=O)O1)C2(C)C (centres undefined)
9.6%	COc1ccccc1C(=O)NCCC(=O)NC(C)c1ccc(-n2ccnc2)cc1 (centres undefined)
2.7%	OB(O)O
0.7%	CCc1ccc2c(CSc3nnnn3C)cc(=O)oc2c1
-2.4%	O=C(COC(=O)Cc1ccccc1F)NNC(=O)c1ccc([N+](=O)[O-])cc1
0.2%	Cc1cccc(CNC(=O)Cn2nc(C)c3nn(-c4ccc(Cl)cc4)c(C)c3c2=O)c1
10.5%	Cc1c(NC(=O)CN2C(=O)NC(CCc3ccccc3)C2=O)c(=O)n(-c2ccccc2)n1C (centres undefined)
0.3%	CCCCCC(=O)c1ccc(O)cc1O
0.1%	Fc1ccc(C2CC(c3cccs3)=NN2c2ccccc2)cc1 (centres undefined)
-23.1%	CCCCN(C(=O)c1ccc(N2CCCC2=O)cc1)c1c(N)n(Cc2ccccc2)c(=O)[nH]c1=O
2.3%	CCCCC(=O)N1CC(=O)Nc2ccc(F)cc2C1c1ccccc1 (centres undefined)
4.1%	CS(=O)(=O)Cc1ccc(C(=O)NC2CCCc3ccccc32)cc1 (centres undefined)
-5.0%	Cc1cc(C)c(C#N)c(SCc2ccc(C(=O)O)cc2)n1
2.7%	CCCN(CCC)C(=O)CSc1nnc2cc(C)c3ccccc3n12
11.9%	Cc1cccc(N2CCN(C(=O)c3c(C)nn(Cc4ccccc4Cl)c3C)CC2)c1C
-15.5%	Cc1ccc(NC(=O)Nc2cc(S(C)(=O)=O)ccc2Cl)cc1
?	Sc1oc(-c2ccccc2)cc1C=Nc1ccccc1
-2.5%	O=C(CN(CCc1ccccc1)S(=O)(=O)c1ccc(Cl)cc1)N/N=C/c1ccccc1C(=O)O
3.4%	CC(C)(O)CCCC(C)(O)c1ccc(C(=O)O)cc1O (centres undefined)
-7.0%	O=C(C1CC1)N1CCc2cc(Br)cc(S(=O)(=O)N3CCN(c4cccc(C(F)(F)F)c4)CC3)c21
-26.7%	COc1ccc(-c2nn(-c3ccccc3)cc2/C=N/NC(N)=S)cc1OC
-26.2%&-0.7%	COc1ccc(N(CC(=O)Nc2cc(Cl)ccc2C)S(=O)(=O)c2c(C)noc2C)cc1
2.2%	CC1C(c2ccccc2)=[N+]([O-])C2(CCCCC2)N1O (centres undefined)
-4.4%	COc1cc2cc(C(=O)NCCc3ccccc3)[nH]c2cc1OC
12.0%	COc1ccc2oc(C(=O)OCC(=O)c3ccc4c(c3)OCCO4)c(C)c2c1
24.3%	Cn1nc(C(=O)Nc2ccc3c(c2)OCCO3)c2ccccc2c1=O
0.5%	NS(=O)(=O)c1ccc(NC(=O)Cn2ncc3c2-c2ccccc2OC3)cc1
-20.3%	O=C(COC(=O)c1cccs1)NC12CC3CC(CC(C3)C1)C2
5.1%	O=C1NC2(CCCCC2)C(=O)N1CCS(=O)(=O)Oc1ccccc1
-21.5%	CCC1C(=O)CC(c2ccc([N+](=O)[O-])cc2)NC1c1ccc([N+](=O)[O-])cc1 (centres undefined)
-8.1%	Clc1ccc(CSc2nnnn2-c2ccc3c(c2)OCO3)c(Cl)c1
-8.8%	O=C(NCC1CCCO1)c1cc2n(n1)C(C(F)(F)F)CC(c1ccc(F)cc1)N2 (centres undefined)
-10.3%	O=C1CC(N2CCN(c3ccccc3)CC2)C(=O)N1c1ccc2c(c1)OCO2 (centres undefined)
0.4%	Oc1ccc(Cl)cc1/C=N/c1nc2ccccc2[nH]1
-2.1%	Cc1cc(C)c2nc(C)cc(Nc3cccc(C(=O)O)c3)c2c1
6.4%	COc1cccc2cc(-c3nc4ccc(C)cc4[nH]3)c(=O)oc12
-3.9%	O=C(COC(=O)Cc1ccc(Br)cc1)Nc1c(F)c(F)c(F)c(F)c1F
-23.6%	O=C1CC(N2CCC(O)CC2)C(=O)N1c1ccc(Br)cc1 (centres undefined)
-5.4%	Cn1c(SCc2ccccc2)nnc1-c1c[nH]c2ccccc12
1.5%	Cc1ccc(C(=O)N2CCN(c3ccc(NC(=S)NC(=O)Cc4ccccc4)cc3)CC2)cc1
-1.9%	Cc1cccc(C(=O)Oc2ccc(/C=N/NC(=O)Cc3ccc([N+](=O)[O-])cc3)cc2)c1
44.4%[activator]	Cc1ccc(-n2c(=O)c3c(C)c(C)sc3n(CC(=O)NCc3ccccc3)c2=O)cc1C
3.3%	CN1CCN(C(=O)Nc2cccc(Cl)c2)c2cccnc21
5.8%	COc1ccccc1OCC(=O)N1CCN(C(=O)COc2ccccc2OC)CC1
-7.2%	CC(=O)c1ccc(NC(=S)NNC(=O)c2ccncc2)cc1
5.1%	NNc1nc2c(-c3ccc(F)cc3)nnn2c2ccccc12
-6.7%	CCOC(=O)C1CCCN(C(c2ccccn2)c2c(C)[nH]c3ccccc23)C1 (centres undefined)
-9.9%	CCc1ccc(C2C(C(=O)O)c3ccccc3C(=O)N2C)cc1 (centres undefined)
-3.5%	CN1C[C@@H]2[C@@H]3C(=O)N(Cc4ccccc4)C(=O)[C@@H]3[C@](Cc3ccccc3)(C1=O)N2C(=O)c1ccc(C(C)(C)C)cc1
4.7%	COc1ccccc1-n1c(SCC(=O)O)nc2c(sc(=S)n2-c2ccc(C)c(C)c2)c1=O

3 entries from above, field by field:
O=C(CSc1n[nH]c(=O)[nH]c1=O)c1ccccc1
- VDR inh: 4.3%
Cc1ccccc1CSc1nnc(-c2ccncc2)n1C
- VDR inh: -5.0%
COc1ccc(C(=O)Nc2ccc(OC)c(OC)c2)cc1
- VDR inh: -7.7%

More records follow.
VDR inh	Molecule
-9.2%	COc1ccc(CN2C(=O)CS/C2=N/N=C/c2ccccc2)cc1
0.7%	Cc1c(C(=O)NCCc2ccc(Cl)cc2)sc2nc3n(c(=O)c12)CCCC3
-4.9%	Cc1ccc(-n2ncc3c2CC(C)(C)CC3NC(=O)C2CCOCC2)cc1 (centres undefined)
0.2%	O=[N+]([O-])c1ccc(N2CCN(Cc3ccccc3)CC2)c(S(=O)(=O)N2CCOCC2)c1
11.9%	COCCCNS(=O)(=O)c1ccc(C)cc1
1.1%	CCOc1ccc(NC(=O)n2ncc3c(C)cccc32)cc1
